Insulin prom inh: TRM-6 insulin promoter activity inhibition; TRM-6 cells (human fetal islet line), insulin promoter-eGFP reporter, imaging; reporter expression induced with tamoxifen; inhibition, % at 2 µM; 130,000 compounds, 0.9% hits; AID 1273;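 active = inhibition above the mean plus 3 SD, with well images judged a real hit on visual review, cut at about 60% in these data, passing the limit was not always enough; inconclusive = inhibition over the cutoff but images rejected on review; inactive = inhibition not above the cutoff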
GALR2 agonist: agonists of human galanin receptor 2 (GALR2). 140,000 compounds, 0.48% hits. GALR2-expressing cells, agonist activation read-out. O43603. activation, %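 (tested at 5 µM)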;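 active = above mean plus 3 SD of all compounds, about 5% in these data, not always enough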;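 note: 0% = vehicle buffer wells and 100% = reference agonist at full effect; tested in CHO reporter cells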
Target sequence (O43603 whole entry, looked up): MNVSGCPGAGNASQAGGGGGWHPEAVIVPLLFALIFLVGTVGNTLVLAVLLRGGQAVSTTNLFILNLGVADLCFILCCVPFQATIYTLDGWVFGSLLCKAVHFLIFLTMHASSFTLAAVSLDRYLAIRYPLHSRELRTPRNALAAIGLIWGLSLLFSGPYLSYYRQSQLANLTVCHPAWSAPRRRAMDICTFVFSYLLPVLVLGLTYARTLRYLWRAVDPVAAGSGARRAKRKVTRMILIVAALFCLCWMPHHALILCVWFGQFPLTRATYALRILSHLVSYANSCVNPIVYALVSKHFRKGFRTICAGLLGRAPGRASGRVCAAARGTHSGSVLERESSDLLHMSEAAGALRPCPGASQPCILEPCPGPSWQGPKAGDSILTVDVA
HSV augment: HSV replication enhancement. HSV replication augmentation in cells, fold increase. maximum fold increase. 220,000 compounds, 0.005% hits. AID 1956;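 active = peak rise of 1.5-fold or more in the series; inconclusive = self-fluorescent or not available for retest; tested in PC3 cells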;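 note: first round at 10 µM; read as green reporter fluorescence; hits show the peak of a series up to 25 µM; 1 = signal of infected wells without compound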
RGS16-Gao: modulates binding between human RGS16 and Galphao; O15492+P09471; bead-based flow cytometry RGS16-Galphao binding, fluorescence; actives lie on both sides; binding response (% of control), % at 10 µM; 220,000 compounds, 0.38% hits;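 active = below 25% or above 175%, edge rows of some plates excepted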;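 note: Galphao activated by GDP with aluminum fluoride before binding; 100% = wells without compound and 0% = beads without RGS; some results beyond the cut were filed as inactive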
Target sequence (O15492 whole entry, looked up): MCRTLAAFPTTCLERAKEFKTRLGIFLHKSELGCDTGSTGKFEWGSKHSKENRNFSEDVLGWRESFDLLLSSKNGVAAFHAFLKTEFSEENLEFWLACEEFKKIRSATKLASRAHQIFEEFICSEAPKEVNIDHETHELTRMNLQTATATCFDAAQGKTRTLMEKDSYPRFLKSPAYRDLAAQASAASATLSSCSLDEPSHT
Target sequence (P09471 whole entry, looked up): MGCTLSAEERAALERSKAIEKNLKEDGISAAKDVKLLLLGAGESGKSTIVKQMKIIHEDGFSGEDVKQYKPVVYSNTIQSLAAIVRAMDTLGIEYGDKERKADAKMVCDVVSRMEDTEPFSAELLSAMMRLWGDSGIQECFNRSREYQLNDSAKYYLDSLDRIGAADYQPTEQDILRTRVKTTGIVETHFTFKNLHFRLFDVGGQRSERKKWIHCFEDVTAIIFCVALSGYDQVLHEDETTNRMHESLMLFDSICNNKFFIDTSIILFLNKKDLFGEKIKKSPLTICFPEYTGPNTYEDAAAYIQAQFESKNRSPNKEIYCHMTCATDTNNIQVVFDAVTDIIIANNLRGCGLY
PKD1 inh: PKD1 (human) kinase inhibition; Q15139; PKD1 kinase fluorescence polarization assay; inhibition, %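 (about 10 µM by stock and volumes)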; 200,000 compounds, 0.056% hits; AID 797;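 active = inhibition of 50% or more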;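 note: controls were vehicle for no effect and a reference inhibitor for full effect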
Insulin prom inh cell count: further read-out of Insulin prom inh, marked with its call; normalized cell count, %; measured here: cell count, toxicity; reference of the scale not given here;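 cells exposed to compound for 48 h; stained nuclei by imaging scaled within each plate; lower means fewer cells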
HSV augment primary fold: second read-out of HSV augment, no call of its own (marks repeat the call); fold increase; compound at 10 µM; measured here: primary screen fold increase 10 uM; tested in PC3 cells;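 GFP signal in the first replicate; 1 = infected wells without compound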
* marks the source's active call; other numbers are inactive results. A portion of the library (hit frequency here may not be typical).

Start of the listing, in advance:
Cn1cc(CCC(=O)N2CCC3(CC2)OCCO3)c2ccccc21 was read as GALR2 agonist -2.1, HSV augment inactive, RGS16-Gao 99, PKD1 inh -7 and HSV augment primary fold 1.1.
Screening C=CCn1c(O)c(C(C)=NCCO)c(=O)[nH]c1=O returned Insulin prom inh -31, GALR2 agonist -2.9, HSV augment inactive, RGS16-Gao 100, PKD1 inh -12, Insulin prom inh cell count 133 and HSV augment primary fold 1.
Screening C/C(=N\NC(=O)c1ccncc1)c1c(O)n(Cc2ccccc2)c(=O)[nH]c1=O returned HSV augment inactive, RGS16-Gao 79 and HSV augment primary fold 0.93.

The list itself, from the first entry:
Cn1cc(CCC(=O)N2CCC3(CC2)OCCO3)c2ccccc21 was read as GALR2 agonist -2.1, HSV augment inactive, RGS16-Gao 99, PKD1 inh -7 and HSV augment primary fold 1.1.
Screening C=CCn1c(O)c(C(C)=NCCO)c(=O)[nH]c1=O returned Insulin prom inh -31, GALR2 agonist -2.9, HSV augment inactive, RGS16-Gao 100, PKD1 inh -12, Insulin prom inh cell count 133 and HSV augment primary fold 1.
Screening C/C(=N\NC(=O)c1ccncc1)c1c(O)n(Cc2ccccc2)c(=O)[nH]c1=O returned HSV augment inactive, RGS16-Gao 79 and HSV augment primary fold 0.93.
`CC1(C)C(C(=O)NN2C(=O)c3ccccc3C2=O)C1(C)C` gave Insulin prom inh 3, GALR2 agonist -3.0, HSV augment inactive, RGS16-Gao 101, PKD1 inh -3, Insulin prom inh cell count 108 and HSV augment primary fold 0.96.
`CCCCn1c(O)c(C(C)=Nc2c(C)n(C)n(-c3ccccc3)c2=O)c(=O)[nH]c1=O` gave Insulin prom inh -44, GALR2 agonist -0.8, HSV augment inactive, RGS16-Gao 105, PKD1 inh -3, Insulin prom inh cell count 78 and HSV augment primary fold 1.
COc1ccc(Br)cc1CN1CCN(CCO)CC1 was read as Insulin prom inh 50, GALR2 agonist -1.1, HSV augment inactive, RGS16-Gao 100, PKD1 inh 5, Insulin prom inh cell count 84 and HSV augment primary fold 1.2.
`COc1ccc(CN2C(=O)CC(=O)NC2=O)cc1` gave GALR2 agonist -1.7, HSV augment inactive, RGS16-Gao 106, PKD1 inh -2 and HSV augment primary fold 1.1.
Screening Nc1ccncc1 returned Insulin prom inh 5, GALR2 agonist -0.5, HSV augment inactive, RGS16-Gao 97, PKD1 inh 11, Insulin prom inh cell count 150 and HSV augment primary fold 0.67.
CCOc1ccc(CC2C(=O)NC(=O)N(c3ccc(CC)cc3)C2=O)cc1 (centres undefined) was read as Insulin prom inh 21, GALR2 agonist -0.8, HSV augment inactive, RGS16-Gao 106, PKD1 inh 3, Insulin prom inh cell count 133 and HSV augment primary fold 1.
Screening Cn1c(O)c(C=NCCN2CCN(C(=O)Nc3ccccc3)CC2)c(=O)n(C)c1=O returned HSV augment inactive, RGS16-Gao 102 and HSV augment primary fold 1.3.
`CC(C)(C)C(=O)OCC12CCC(O1)C1(C)C(=O)OCC21` (centres undefined) gave Insulin prom inh 22, GALR2 agonist 0.0, HSV augment inactive, RGS16-Gao 101, PKD1 inh 1, Insulin prom inh cell count 116 and HSV augment primary fold 0.89.
For CN1CN(c2cccc([N+](=O)[O-])c2)CN=C1N[N+](=O)[O-] the results were HSV augment inactive, RGS16-Gao 90, PKD1 inh 2 and HSV augment primary fold 0.8.
`CCOC(=O)C(O)(c1ccc(NC(=S)NC(=O)c2ccc(Cl)cc2Cl)c(C)c1)C(F)(F)F` (centres undefined) gave Insulin prom inh 0, GALR2 agonist -0.1, HSV augment inactive, RGS16-Gao 99, PKD1 inh -8, Insulin prom inh cell count 134 and HSV augment primary fold 0.99.
Screening COCCOC(=O)c1c(N)n(Cc2ccccc2)c2nc3ccccc3nc12 returned GALR2 agonist 1.1, HSV augment inactive, RGS16-Gao 102, PKD1 inh 0 and HSV augment primary fold 0.86.
CC1CC(NC(=O)C2C3CCC(O3)C2C(=O)O)CC(C)(C)C1 (centres undefined) was read as Insulin prom inh 13, GALR2 agonist -0.8, HSV augment inactive, RGS16-Gao 166, PKD1 inh 6, Insulin prom inh cell count 104 and HSV augment primary fold 0.86.
Fc1ccccc1CCNCc1cccc(Cl)c1Cl was read as Insulin prom inh 0, GALR2 agonist -1.3, HSV augment inactive, RGS16-Gao 97, PKD1 inh -6, Insulin prom inh cell count 84 and HSV augment primary fold 0.87.
Screening Cc1nc2ccc(N3CCN(C)CC3)cc2nc1C returned Insulin prom inh 27, HSV augment inactive, RGS16-Gao 100, PKD1 inh -2, Insulin prom inh cell count 107 and HSV augment primary fold 0.99.
`COP(=O)(NC(=O)C(Cl)(Cl)Cl)OC` gave HSV augment inactive, RGS16-Gao 107 and HSV augment primary fold 1.1.
`CCN(CC)C(=O)N[C@H]1C[C@@H]2c3cccc4[nH]cc(c34)C[C@H]2N(C)C1` gave Insulin prom inh 27, GALR2 agonist 0.1, HSV augment inactive, RGS16-Gao 102, PKD1 inh -9, Insulin prom inh cell count 99 and HSV augment primary fold 1.
CNC(=S)N/N=C1\C2CN3CCN(C2)CC1(c1ccccc1)C3 was read as Insulin prom inh 7, GALR2 agonist 0.3, HSV augment inactive, RGS16-Gao 86, PKD1 inh 4, Insulin prom inh cell count 152 and HSV augment primary fold 1.
For Cc1cc(C)n(-c2ccc(NN=C(C#N)C#N)cc2)n1 the results were HSV augment inactive, RGS16-Gao 108 and HSV augment primary fold 0.74.
Cc1cc([P+](=O)O)c(C)n1-c1ccc(Br)cc1 was read as GALR2 agonist -1.3, HSV augment inactive, RGS16-Gao 96, PKD1 inh -1 and HSV augment primary fold 1.
`CC1CN=C(NC(C)c2ccccc2)S1` (centres undefined) gave HSV augment inactive, RGS16-Gao 101, PKD1 inh -4 and HSV augment primary fold 1.1.
For O=C1NC(=O)C(CCc2ccncc2)(CCc2ccncc2)C(=O)N1C1CCCCC1 the results were Insulin prom inh 0, HSV augment inactive, RGS16-Gao 103, PKD1 inh -2, Insulin prom inh cell count 102 and HSV augment primary fold 0.86.
CCOc1ccc(N2C(=O)NC(=O)/C(=C\c3cc(OC)c(OC)cc3[N+](=O)[O-])C2=O)cc1 was read as Insulin prom inh 28, GALR2 agonist -0.7, HSV augment inactive, RGS16-Gao 99, PKD1 inh -14, Insulin prom inh cell count 117 and HSV augment primary fold 1.
For O=c1[nH]c(=O)n(-c2cccc3ccccc23)c(O)c1/C=N/N1CCCCC1 the results were HSV augment inactive, RGS16-Gao 117 and HSV augment primary fold 0.92.
For CCN1CCN(C(=O)COc2ccc(S(=O)(=O)NC(C)C)cc2)CC1 the results were Insulin prom inh -356, GALR2 agonist 0.1, HSV augment inactive, RGS16-Gao 111, PKD1 inh -6, Insulin prom inh cell count 88 and HSV augment primary fold 0.95.
`O=c1c2ccccc2nc(N2CCCC2)n1-c1ccc(Cl)cc1` gave GALR2 agonist -1.9, HSV augment inactive, RGS16-Gao 95, PKD1 inh 17 and HSV augment primary fold 0.82.
For O=C(Nc1cccc(Br)c1)c1c(O)c2c(n(Cc3ccccc3)c1=O)CCCC2 the results were HSV augment inactive, RGS16-Gao 95 and HSV augment primary fold 1.1.
`CN1CCC(C)(O)C2CCCCC21` (centres undefined) gave Insulin prom inh 7, HSV augment inactive, RGS16-Gao 105, PKD1 inh -4, Insulin prom inh cell count 131 and HSV augment primary fold 0.97.
For O=C(Nc1ccc(F)cc1)OC1CN2CCC1CC2 (centres undefined) the results were HSV augment inactive, RGS16-Gao 102 and HSV augment primary fold 0.96.
COc1ccc2c(CN3CC=C(c4ccccc4)CC3)cc(=O)oc2c1 was read as Insulin prom inh 14, HSV augment inactive, RGS16-Gao 62, PKD1 inh -3, Insulin prom inh cell count 99 and HSV augment primary fold 1.
CC(C)OP(=O)(OC(C)C)C(O)c1ccccc1F (centres undefined) was read as GALR2 agonist 0.4, HSV augment inactive, RGS16-Gao 98, PKD1 inh -2 and HSV augment primary fold 1.1.
Screening O=C1Nc2ccccc2/C1=C/c1nc2ccccc2c(=O)n1-c1ccc(O)cc1 returned HSV augment inactive, RGS16-Gao 101 and HSV augment primary fold 0.67.
`CCOC(=O)c1c(N)n(Cc2ccccc2)c2nc3ccccc3nc12` gave Insulin prom inh 36, GALR2 agonist -0.6, HSV augment inactive, RGS16-Gao 96, PKD1 inh -3, Insulin prom inh cell count 74 and HSV augment primary fold 0.93.
NCC1(c2ccc3c(c2)OCCO3)CCCC1 was read as Insulin prom inh 29, GALR2 agonist -1.0, HSV augment inactive, RGS16-Gao 108, PKD1 inh 9, Insulin prom inh cell count 104 and HSV augment primary fold 1.1.

2 compounds picked at random from the list so far, as already listed:
`COP(=O)(NC(=O)C(Cl)(Cl)Cl)OC` gave HSV augment inactive, RGS16-Gao 107 and HSV augment primary fold 1.1.
`COc1ccc(CN2C(=O)CC(=O)NC2=O)cc1` gave GALR2 agonist -1.7, HSV augment inactive, RGS16-Gao 106, PKD1 inh -2 and HSV augment primary fold 1.1.

Next section.
For C/C(=N\Nc1cccc2ccccc12)c1c(O)n(Cc2ccccc2)c(=O)[nH]c1=O the results were GALR2 agonist -0.2, HSV augment inconclusive, RGS16-Gao 63 and PKD1 inh 5.
O=C1/C(=C/c2cc([N+](=O)[O-])ccc2Cl)N2CCC1CC2 was read as Insulin prom inh 54, GALR2 agonist -2.0, HSV augment inactive, RGS16-Gao 109, PKD1 inh -1, Insulin prom inh cell count 75 and HSV augment primary fold 0.8.
Screening CCCCCc1cc(O)c2c3c(c(=O)oc2c1)CN(C)CC3 returned Insulin prom inh -47, HSV augment inactive, RGS16-Gao 108, PKD1 inh -7, Insulin prom inh cell count 79 and HSV augment primary fold 0.89.
`OC(c1ccccc1)(c1ccccc1)C1CN2CCC1CC2` (centres undefined) gave HSV augment inactive, RGS16-Gao 116, PKD1 inh 5 and HSV augment primary fold 0.85.
For CCOC(=O)C1SC2(C(F)F)CC1(O)c1c(c(OC)c3occc3c1OC)O2 (centres undefined) the results were Insulin prom inh -32, GALR2 agonist -1.9, HSV augment inactive, RGS16-Gao 101, PKD1 inh 3, Insulin prom inh cell count 92 and HSV augment primary fold 1.
`COc1ccc(C(=O)C2CCCN(C3CSCCSC3)C2)cc1OC` (centres undefined) gave HSV augment inactive, RGS16-Gao 101, PKD1 inh 1 and HSV augment primary fold 1.1.
Screening c1ccc2c(c1)Nc1ccccc1S2 returned GALR2 agonist -2.2, HSV augment inactive, RGS16-Gao 86, PKD1 inh -5 and HSV augment primary fold 0.66.
`Cc1ccc(NC(=O)CSc2nnc([C@@H](N)Cc3c[nH]c4ccccc34)o2)c(C)c1` gave Insulin prom inh 15, GALR2 agonist -1.9, HSV augment inactive, RGS16-Gao 98, PKD1 inh -5, Insulin prom inh cell count 113 and HSV augment primary fold 0.95.
For O=C1C=C2C=C[C@H]3C[C@]2(O1)[C@@H]1CCCCN13 the results were Insulin prom inh -52, GALR2 agonist -0.2, HSV augment inactive, RGS16-Gao 104, PKD1 inh -13, Insulin prom inh cell count 127 and HSV augment primary fold 0.78.
CC12CC[C@H]3[C@@H](CCC4(O)C[C@H](O)CCC34/C=N/NC(=O)c3ccccc3Cl)C1(O)CCC2C1=CC(=O)OC1 (some centres undefined) was read as HSV augment inactive, RGS16-Gao 99 and HSV augment primary fold 0.96.
Screening CCN(CC)c1ccc(N=Cc2c(O)n(-c3ccccc3C)c(=O)[nH]c2=O)cc1 returned Insulin prom inh 3, GALR2 agonist -2.2, HSV augment inactive, RGS16-Gao 105, PKD1 inh -8, Insulin prom inh cell count 193 and HSV augment primary fold 1.2.
C=CCn1c(O)c(C(C)=Nc2cccc(C(=O)O)c2)c(=O)[nH]c1=O was read as HSV augment inactive, RGS16-Gao 102 and HSV augment primary fold 1.2.
For CCN(CC)CCCOC(=O)C(OC(C)C)(c1ccccc1)c1ccccc1 the results were Insulin prom inh 14, GALR2 agonist -1.9, HSV augment inactive, RGS16-Gao 72, PKD1 inh -4, Insulin prom inh cell count 109 and HSV augment primary fold 0.64.
For CCOC(=O)c1cc(CC)sc1/N=C/c1c(O)[nH]c(=S)[nH]c1=O the results were Insulin prom inh 25, GALR2 agonist -1.6, HSV augment inactive, RGS16-Gao 23, PKD1 inh -3, Insulin prom inh cell count 68 and HSV augment primary fold 1.2.
For COc1ccc(N=Cc2c(O)n(-c3ccc(C)cc3)c(=O)[nH]c2=O)cc1 the results were Insulin prom inh 83*, HSV augment inactive, RGS16-Gao 102, PKD1 inh -1, Insulin prom inh cell count 77* and HSV augment primary fold 1.

From PubChem
